# Rango complex inh = inhibitors of Rango-importin beta complex formation. Rango CFP/YFP FRET sensor + importin beta, 45 min. Potency, µM (titrated, usually from 92.2 µM), for the others: at the highest dose inhibition of complex formation. Q14974. 0.031% of 340,000 active; active = rising FRET ratio curve, often small or poorly fitted; inconclusive = mostly compound fluorescence or quenching in the first reads; inactive = flat curves in all reads;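 further: potency means the concentration at half of the fitted maximal effect; 0% = DMSO wells and 100% = buffer wells lacking importin beta; nearly all actives have a fitted effect of over 15% in size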
#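 Inhibition scored from the CFP 486 nm/YFP 530 nm FRET ratio 45 min after adding 0.125 microM importin beta to 50 nM Rango biosensor preincubated 5 min with compound (room temperature, PBS with DTT, Tween-20, BSA). No-importin wells as positive control.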
# GLA inh pH 4.5 = blocks human alpha-galactosidase A at pH 4.5; 230,000 tested, under 10 active; AID 1467; purified enzyme, 4-MU-alpha-Gal fluorescence, pH 4.5; P06280; activity change, negative = inhibition, % at 105 µM; inconclusive = small, poorly fitted or top-dose-only inhibition, or a rising curve; inactive = flat fitted curve, though single readings scatter; no compound was filed as active;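 further: 0% = full activity with enzyme and -100% = basal without enzyme; dose as in the result columns while the protocol names 77 µM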
# Target sequence (P06280 whole entry, looked up): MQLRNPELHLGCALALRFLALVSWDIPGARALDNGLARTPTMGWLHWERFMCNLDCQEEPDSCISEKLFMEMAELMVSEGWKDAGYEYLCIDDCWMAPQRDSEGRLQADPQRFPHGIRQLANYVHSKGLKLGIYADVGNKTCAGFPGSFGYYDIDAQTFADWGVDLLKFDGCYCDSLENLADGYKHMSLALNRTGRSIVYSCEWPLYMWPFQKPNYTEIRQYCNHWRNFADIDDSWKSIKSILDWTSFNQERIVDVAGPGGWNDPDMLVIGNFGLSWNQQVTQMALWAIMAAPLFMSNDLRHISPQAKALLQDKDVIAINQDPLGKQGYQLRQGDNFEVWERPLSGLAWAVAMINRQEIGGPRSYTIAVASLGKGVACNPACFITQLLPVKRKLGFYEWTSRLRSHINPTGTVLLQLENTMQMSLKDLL
# Rango release inh = prevents RanGTP from dissociating the Rango-importin beta complex; O95149+P62826; Biochemical FRET Rango-importin beta, RanGTP-induced dissociation; Potency, µM (series often up to 46.1 µM), inactives show at the top dose activity change, negative = inhibition; 0.071% of 340,000 active; AID 540253; active means falling FRET ratio curve, often poorly fitted, with flat reads before Ran was added; inconclusive means other falling curves, or compound fluorescence or quenching; inactive means flat or rising ratio curve;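 further: potency means the concentration at half of the fitted maximal effect; % of control where 0% means no effect; nearly all actives have a fitted effect of over 45% in size; -100% = wells without RanGTP and RCC1; the record marks most hits as doubtful in a second field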
#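 FRET read at 45 min, room temperature: inhibitors block the CFP/YFP signal rise when RanGTP (0.6 uM Ran, 2 mM GTP, 0.2 uM RCC1) frees Rango (0.1 uM) from importin beta (0.25 uM). Pre-read after 5 min compound exposure flags interference.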
# miR-21 reporter = miR-21 reporter, rising signal; Potency, µM (top dose mostly 38.3 µM), for inactives: top-dose reporter change, positive = more light; AID 2288; HeLa miR-21 FLuc reporter, luciferase, 48 h; 340,000 tested, under 10 active; active = well fitted rising curve with a large enough effect; inconclusive = small, poorly fitted or top-dose-only effect; inactive = no such curve, though single readings can be large or run the other way;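 further: % of control where 0% means no effect; miR-21 action dims this reporter so a rising signal means less miR-21 action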
#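 HeLa miR-21-FLuc reporter line, endogenous miR-21; 2000 cells/well in DMEM/10% FBS; compound titration up to ~40uM final, 48 h, 37 degree Celsius; luciferase detection reagent, 15 min lysis, CCD luminescence.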
# Starred values were filed as active, the others as inactive; u = inconclusive; x = no result given; & = joins results of further samples. These rows are one share of the data, so the mix of outcomes need not match the whole.
SMILES,Rango complex inh,GLA inh pH 4.5,Rango release inh,miR-21 reporter
COc1cc2nc(CN3CCN(S(=O)(=O)c4ccc(C)c(C)c4)CC3)[nH]c(=O)c2cc1OC,1.7%,-7,u,1%
C=CCn1c(SCc2nc3cc(C(F)(F)F)ccc3c(=O)[nH]2)nc2sc(CC)cc2c1=O,2.9%,-6,-20%,-2%
CCNC(=O)/C=C1\NC(C)(C)Cc2c1ccc1ccccc21,-5.6%,-4,-10%,-17%
CNC(=S)N1CCN=C1Nc1nc(C)cc(C)n1,-2.8%,2,6%,1%
COc1ccc([C@@H]2[C@@H]3C(=O)N(C(C)(C)C)C(=O)[C@@H]3[C@]3(Cc4ccccc4)C(=O)N(c4ccccc4)C(=O)N23)cc1,-3.1%,x,-5%,x
O=C(CN1CCCCCC1)Nc1ccc(Br)cc1,2.6%,0,1%,-31%
O=C(C1=C[C@@H](C2CC2)C[C@@H](OCCCCO)O1)N1CCOCC1,-0.7%,-2,1%,0%
CC1CCN(c2ccc(C(=O)NCCc3ccccc3)cn2)CC1,4.1%,3,-9%,-46%
O=C(N/N=C(/c1ccccc1)c1ccncc1)c1ccc2c(c1)OCO2,-0.1%,2,0%,-14%
O=C(NCCn1cc(SCC(=O)N2CCOCC2)c2ccccc21)c1c(F)cccc1F,3.7%,-3,-12%,-5%
CCOc1ccc(C(=O)N2CCN(c3cccc(C)c3C)CC2)cc1,2.3%,7,10%,-11%
CS(=O)(=O)N(CC(=O)NCC1CCCO1)c1cccc(Cl)c1 (stereo not given),1.6%,-5,3%,-20%
Nc1ncn(C23CC4CC(CC(C4)C2)C3)n1,-0.5%,-1,3%,-6%
O=C(N/N=C/c1ccncc1)C1C2CCCCCCC21 (stereo not given),-1.8%,0,1%,-43%
N#Cc1c(-c2ccccc2)nc(SCC(=O)N2c3ccccc3Sc3ccccc32)[nH]c1=O,0.1%,-5,-4%,4%
COc1ccc2c(c1)[nH]c1c(=O)n(/N=C/c3ccc(OC)c(CN4CCCC4)c3)cnc12,-3.3%,-1,8%,-1%
O=C1CC(c2ccccc2)NC(=O)N1 (stereo not given),-1.0%,7,-4%,-3%
CC12C=CC(=O)C=C1CCC1C3CCC(O)(C(=O)CO)C3(C)CC3OC312 (stereo not given),-2.4%,1,-10%,-8%
C=COCCCNc1ncnc2sc(-c3ccccc3)cc12,-0.3%,x,-6%,26%
CC(OC(=O)c1cccc(S(=O)(=O)N2CCCCC2)c1)C(=O)NCC1CCCCC1 (stereo not given),-4.7%,x,16%,x
CCN(CC)S(=O)(=O)c1ccc(NC(=O)c2ccc(Sc3nncn3C)c([N+](=O)[O-])c2)cc1,5.5%,0,20%,-2%
Oc1c(Br)cc(Br)cc1/C=N/c1nccs1,u,x,u,x
CN1CCN(C(=S)SCC(=O)N2CCCc3ccccc32)CC1,0.6%,x,-15%,-6%
Cc1ccnc(N2CCC(C(=O)NNC(=O)c3ccccc3)CC2)n1,2.4%,11,-6%,-1%
NC(=O)CCN1CCN(C(=O)c2ccc3nc(Cc4cccc(Cl)c4)oc3c2)CC1,3.1%,x,-10%,-7%
O=C(COC(=O)/C=C/c1ccc2c(c1)OCO2)Nc1ccccc1,-4.2%,11,0%,0%
COC(=O)CC1COc2ccccc2N1C(=O)c1ccc(OC)cc1 (stereo not given),-3.1%,-22,10%,0%
COc1cccc(C(=O)NNC(=O)CCC(=O)O)c1,4.0%,-2,22%,-2%
Cc1ccc(O)c(C(=O)c2cnc3c(c2)c(C)nn3-c2ccccc2)c1,0.6%,-11,-4%,-7%
COc1cc([N+](=O)[O-])ccc1NC(=S)NCc1ccccn1,4.7%,-9,-1%,-16%
S=C(NCc1ccccc1)NCc1ccccc1,-0.4%,-4,13%,-11%
CCC(=O)Nc1cccc(C(=O)/C=C/c2ccccc2)c1,-1.0%,-1,0%,u
CCc1ccccc1NC(=O)CN(C)C(=O)Cn1cc(C(F)(F)F)cc(Cl)c1=O,-3.9%,-10,-5%,-2%
Cc1ccc(S(=O)(=O)N2[C@@H](c3ccc(Cl)cc3)C(C(=O)O)=CC[C@H]2c2ccc(Cl)c(Cl)c2)cc1,u,x,-11%,x
Cc1ccc(-c2nnc3ccc(SCC(=O)NCc4ccco4)nn23)cc1,1.2%,2,-17%,0%
O=C(Nc1ccccc1Cl)c1cccc(NC(=O)c2cccs2)c1,5.5%,x,16%,-7%
COc1ccc(CN2CCN(c3ccccn3)CC2)c(OC)c1,0.9%,0,-2%,-10%
O=C(CCN1C(=O)C2C3C=CC(C4CC34)C2C1=O)Oc1cccc2cccnc12 (stereo not given),-3.1%,5,-4%,1%
CCN1C(=O)N[C@@H](c2cccc(C(F)(F)F)c2)[C@@H](C(=O)OC)[C@H]1C,1.0%,2,-3%,x
CCN(CC)C(=O)Cn1cc(S(=O)(=O)CC(=O)Nc2ccc3c(c2)OCCO3)c2ccccc21,-0.4%,-4,26%,-44%
CC(CNC(=O)CN1C(=O)NC2(CCCCC2C)C1=O)c1ccccc1 (stereo not given),5.9%,x,8%,x
Nc1ccc(Cn2ccc3c4c(N)nc(N)nc4ccc32)cc1,18%,x,1%,x
O=C(NC1CCCCC1)c1ccc2c(=O)n(CC3CCCO3)c(=O)[nH]c2c1 (stereo not given),1.8%,19,0%,6%
O=C(Nc1ncc(Cc2ccccc2)s1)C1=NCCN1,1.8%,1,7%,-18%
Cc1c(C(=O)N2CCOCC2)oc2c1C(=O)CC(C)(C)C2,1.3%,0,7%,-7%
CCOc1cc(/C=N/NC(=O)CNc2cccc(C)c2)ccc1OC(=O)c1ccccc1,-1.9%,-8,25%,0%
CCOc1ccccc1Nc1cc(C)nc2nc(C)nn12,-1.5%,2,-5%,-15%
O=C(NNS(=O)(=O)c1ccc(F)cc1)c1ccccc1O,2.7%,x,-6%,5%
CC1(C)Cc2c(C#N)c(NCCO)nc(-c3ccco3)c2CO1,u,17,-20%,-3%
Nc1nc(NCc2ccccc2)nc(-c2ccccc2)n1,4.8%,-3,3%,-13%

# Remaining list, next part:
SMILES,Rango complex inh,GLA inh pH 4.5,Rango release inh,miR-21 reporter
CCc1cc(C(=O)NCC(c2ccco2)N2CCCCC2)sc1C (stereo not given),-1.1%,x,-4%,x
CC(C)CC(NC(N)=O)C(=O)OCC(=O)Nc1ccc(SC(F)F)cc1 (stereo not given),-1.1%,-5,-26%,-6%
CCCCn1c(N)c(N(CCOC)C(=O)c2cccc(S(=O)(=O)N(C)c3ccc(C)cc3)c2)c(=O)[nH]c1=O,5.2%,x,18%,x
Cc1ccccc1-c1nnc(-c2ccc(Cl)cc2)o1,-0.1%,1,7%,-62%
CC1CCCN(C2(O)C(=O)Nc3ccc(Cl)cc32)C1 (stereo not given),-1.8%,x,0%,-8%
CCN(CC)C(=O)C(=O)c1ccn(-c2c(C)csc2C(=O)OC)c1,4.0%,4,2%,-4%
C=CCn1c(SCC(=O)Nc2ccc(Br)cc2)nc(O)c(CC)c1=O,1.9%,x,14%,4%
CC1(c2ccccc2)NC(=O)N(CC(=O)N(CC(=O)Nc2ccccc2C(F)(F)F)Cc2ccco2)C1=O (stereo not given),0.5%,x,1%,x
O=C(NCc1ccccc1)c1csc2c1CCCCC2,3.1%,-3,0%,-31%
CC(OC(=O)c1ccc(Cl)nc1)C(=O)NC(C)(C)C (stereo not given),-1.3%,-3,0%,1%
CCOC(=O)N1CCN(C(=O)c2ccc(N3C(=O)c4ccccc4C3=O)cc2)CC1,-4.7%,-4,2%,-4%
O=C(Nc1cc(S(=O)(=O)N2CCOCC2)ccc1N1CCOCC1)c1c(F)cccc1Cl,-6.0%,x,-11%,x
CS(=O)(=O)c1ccc(Cl)c(NC(=O)COC(=O)CCN=C2NS(=O)(=O)c3ccccc32)c1,3.3%,x,3%,x
OCC1CCCN(c2ncnc3scc(-c4ccccc4)c23)C1 (stereo not given),-1.4%,-1,u,-5%
C=CCSc1nnc(Cn2c(=O)sc3ccccc32)n1C,-2.2%,4,-25%,-3%
Cc1cc(C)c([N+](=O)[O-])cc1-c1ccc(/C=N/NC(=O)c2nonc2N)o1,u,-2,u,-4%
Cc1nc2nc(-c3cccnc3)[nH]n2c(=O)c1Cc1ccccc1,0.3%,-12,0%,-4%
CN(C)C(CNC(=O)NC1CCCCC1)c1cccnc1 (stereo not given),-0.5%,-2,-5%,-3%
COc1ccccc1C(=O)N/C(=C\c1ccccc1)C(=O)NC(C)C(=O)O (stereo not given),5.6%,15,-7%,-4%
COc1ccc2c(c1OC)C(=O)OC2Nc1ccccc1S(=O)(=O)C(F)F (stereo not given),0.7%,0,u,-6%

# Gathered by group, those above containing a cyano group.
SMILES,Rango complex inh,GLA inh pH 4.5,Rango release inh,miR-21 reporter
N#Cc1c(-c2ccccc2)nc(SCC(=O)N2c3ccccc3Sc3ccccc32)[nH]c1=O,0.1%,-5,-4%,4%
CC1(C)Cc2c(C#N)c(NCCO)nc(-c3ccco3)c2CO1,u,17,-20%,-3%

# Next part
SMILES,Rango complex inh,GLA inh pH 4.5,Rango release inh,miR-21 reporter
O=C(CCC1CCCN(C(=O)CCC(F)(F)F)C1)NCc1ccc(F)c(F)c1 (stereo not given),-2.6%,2,4%,-1%
CCc1nn(CC(=O)NCCCc2ccccc2)c(=O)c2cc3cc(F)ccc3n12,-2.4%,x,18%,-4%&0%
Cc1cccc(NC(=O)C2(c3ccccc3)CCOCC2)c1,-2.5%,-1,-1%,1%
CCOC(=O)C1(Cc2cccc(Cl)c2)CCCN(CCO)C1 (stereo not given),2.1%,3,6%,-3%
O=C(O)CNC(=O)C(CS)Cc1ccccc1 (stereo not given),-0.1%,-6,1%,x
CCSC(=O)N=Nc1ccc(O)cc1,7.3%,x,24%,x
CCCOc1ccc(NC(=O)CC2C(=O)N(C)C(=S)N2Cc2ccc3c(c2)OCO3)cc1 (stereo not given),-2.4%,-10,-12%,20%
O=S1(=O)C=CC(c2ccccc2)C1 (stereo not given),-0.2%,-1,8%,0%
CCN1CCc2c(OCc3ccccc3)cccc2C1=O,1.2%,4,0%,0%
CCn1cc(C(=O)N[C@@H](CCSC)C(=O)NC(C)(C)CO)c(=O)c2cc3c(cc21)OCO3,0.4%,x,-3%,-14%

# Among those listed so far, these have a tert-butyl group.
SMILES,Rango complex inh,GLA inh pH 4.5,Rango release inh,miR-21 reporter
COc1ccc([C@@H]2[C@@H]3C(=O)N(C(C)(C)C)C(=O)[C@@H]3[C@]3(Cc4ccccc4)C(=O)N(c4ccccc4)C(=O)N23)cc1,-3.1%,x,-5%,x
CC(OC(=O)c1ccc(Cl)nc1)C(=O)NC(C)(C)C (stereo not given),-1.3%,-3,0%,1%

# Next compounds:
SMILES,Rango complex inh,GLA inh pH 4.5,Rango release inh,miR-21 reporter
O=C(O)c1cn(C2CCCCC2)c2ccccc2c1=O,1.6%,3,5%,-9%
CCC(C(=O)NCCc1c[nH]c2cc(OC)ccc12)c1ccccc1 (stereo not given),-3.8%,x,0%,8%
CCCOc1ccccc1NC(=O)c1ccc(N)cc1,3.6%,-5,1%,-11%
Cc1ccc(C2N3CC4([N+](=O)[O-])CN2CC([N+](=O)[O-])(C3)C4(C)C)cc1 (stereo not given),-1.7%,5,-14%,2%
C[C@]12CCC[C@H](O1)[C@H]([C@@H](O)c1ccccc1)O2,-1.8%,x,-14%,x
COc1cc(Cl)ccc1NC(=S)N(CCN(C)C)C(C)c1ccncc1 (stereo not given),0.2%,4,0%,-5%
COC(=O)CSc1nc(-c2ccccc2)cc(-c2ccco2)c1C#N,-1.8%,0,2%,-10%
O=c1cc(O)c(-c2ccccc2)c(Cl)[nH]1,0.2%,4,-18%,0%
CCOC(=O)N1CCC(Nc2c(NCCCN(CC)c3cccc(C)c3)c(=O)c2=O)CC1,-2.8%,-5,-17%,2%
COc1ccc(CC(=O)OCC(=O)c2ccc[nH]2)cc1,-0.7%,x,-20%,x
CCCCOc1cccc(/C=N/NC(=O)c2csc(C)c2C)c1,-0.8%,1,0%,-16%
